From PubChem BioAssay
AF4-AF9 inh: inhibitors of AF4 peptide binding to AF9, primary screen, biochemical, AlphaScreen, biotin-AF4 peptide, FLAG-AF9, single point; Protein AF-9 (Homo sapiens), P42568; inhibition, % at 10 µM; 350,000 tested, 0.47% active;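 active = every replicate reaching a set inhibition limit, whatever the replicate mean, cut at about 25% in these data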;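 note: 0% = plate neutral control median and 100% = total signal loss; the record names both 10 and 1 µM as test concentration; the first replicate is given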
Target sequence (P42568 whole entry, looked up): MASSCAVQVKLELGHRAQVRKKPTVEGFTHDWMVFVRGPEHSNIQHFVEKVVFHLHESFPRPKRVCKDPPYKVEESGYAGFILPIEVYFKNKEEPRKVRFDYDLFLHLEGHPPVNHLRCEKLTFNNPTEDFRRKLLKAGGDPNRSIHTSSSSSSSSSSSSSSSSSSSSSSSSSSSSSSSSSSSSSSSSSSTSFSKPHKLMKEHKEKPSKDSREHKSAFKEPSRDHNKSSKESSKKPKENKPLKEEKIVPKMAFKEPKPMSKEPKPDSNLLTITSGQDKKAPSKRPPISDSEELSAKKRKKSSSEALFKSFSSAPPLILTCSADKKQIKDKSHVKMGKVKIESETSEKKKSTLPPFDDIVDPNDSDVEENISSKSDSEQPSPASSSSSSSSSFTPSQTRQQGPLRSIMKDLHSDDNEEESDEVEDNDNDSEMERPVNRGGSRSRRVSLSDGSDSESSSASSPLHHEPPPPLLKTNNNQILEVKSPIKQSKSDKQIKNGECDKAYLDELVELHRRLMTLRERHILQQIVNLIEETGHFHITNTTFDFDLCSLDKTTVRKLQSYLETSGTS
rRNA inh HTS: reduced GFP signal of wild-type E. coli, primary screen, bacterial rRNA inhibitor project, GFP/RFP fluorescence, OD600, single point; E. coli WT GFP vs humanized-ribosome RFP mutants, 24 h; active compounds read low; DMSO median 0, no signal -100; GFP signal change (wild-type ribosome), % (test concentration not listed); 350,000 tested, 1.6% active;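 active = significant combined selectivity score with lowered wild-type GFP, culture density cut under 30%, mutant RFP and density less affected; inactive = any of these conditions unmet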; note: one replicate is shown; some compounds called inactive have numbers as strong as hits
rRNA inh HTS OD600: further read-out of rRNA inh HTS, marked with its call; OD600 change, %; measured here: OD600 growth;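 optical density of the mix in the first replicate; 0 = DMSO median and -100 = no signal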
rRNA inh HTS RFP: further read-out of rRNA inh HTS, marked with its call; RFP signal change, %; measured here: RFP humanized mutant strains;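 first replicate; 0 = DMSO median and -100 = no signal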
Active calls of the source: *; & = joins results of further samples.

structure | AF4-AF9 inh | rRNA inh HTS | rRNA inh HTS OD600 | rRNA inh HTS RFP
O=C(c1ccc2c(c1)OCO2)N1CC(=O)N2[C@H](CO)[C@@H](c3ccc(C#Cc4ccccc4)cc3)[C@H]2C1 | -0.1 | -1.4 | -41.0 | 22.4
CN1C(=O)c2cc(NC(=O)C3CCCC3)ccc2OC[C@H]2O[C@@H](CC(=O)O)CC[C@@H]21 | -1.6 | 1.6 | 2.9 | -1.2
CO[C@H]1CN(C)C(=O)c2ccc(NS(C)(=O)=O)cc2OC[C@@H](C)N(Cc2ccccc2)C[C@H]1C | 1.5 | -0.4 | -1.1 | 0.9
CS(=O)(=O)N1[C@H](CO)[C@H](c2ccccc2-c2ccccc2F)[C@@H]1C#N | 0.6 | -0.4 | -22.3 | 1.9
COc1ccc2c3c(n(C)c2c1)[C@H](CO)N(Cc1cccc(F)c1)CC31CCN(C(=O)Cc2ccccc2)CC1 | -3.3 | 2.0 | -17.1 | 1.9
COc1cccc(C#Cc2ccc3c(c2)[C@H]2[C@H](CCN2C(=O)CC2CC2)[C@H](CO)N3)c1 | 3.0 | -1.7 | -1.0 | 0.9
c1ccc(-c2cc(CN3[C@@H]4CNC[C@H]3C4c3ccc(-c4ccncc4)cc3)no2)cc1 (stereo partly specified) | 1.2 | -2.5 | 6.6 | -2.0
Cc1noc(C)c1NC(=O)Nc1ccc2c(c1)CC(=O)N([C@H](C)CO)C[C@@H](C)[C@@H](CN(C)CC1CC1)O2 | -3.5 | -2.7 | -4.0 | -1.4
CO[C@@H]1CN(C)C(=O)c2cc(NC(=O)Cc3ccccc3)ccc2OC[C@@H](C)N(CC2CC2)C[C@H]1C | 1.8 | -2.6 | -3.6 | -2.3
CCC(=O)N1[C@H](CO)[C@H](c2ccc(-c3ccccc3)cc2)[C@@H]1CNC(=O)C1CC1 | -1.9 | -1.7 | -2.3 | 0.8
O=C(c1ccc(F)cc1)N1CC(=O)N2[C@H](C1)[C@H](c1ccc(C#CC3CCCCC3)cc1)[C@@H]2CO | 2.3 | -3.6 | -17.4 | 36.5
O=C(C[C@@H]1CC[C@H](NS(=O)(=O)c2ccccc2)[C@@H](CO)O1)N1CCN(c2ccccc2)CC1 | -2.4 | -1.3 | 0.5 | -3.1
Cc1ccc(-c2ccc(C3[C@@H]4CN(S(=O)(=O)c5ccccc5)C[C@H]3N4)cc2)cc1 (stereo partly specified) | -3.6&-1.9 | 1.1&-37.9 | 11.1&-45.5 | 1.4&5.5
CN1C[C@@H]2[C@H](c3ccccc31)[C@H](CO)N2C(=O)Nc1ccc(F)cc1 | -1.4 | 0.8 | 3.3 | -0.1
COCC(=O)Nc1ccc2c(c1)C(=O)N(C)C[C@H](OC)[C@H](C)CN(C)[C@@H](C)CO2 | 1.4 | 1.6 | 7.2 | -3.0
CN(C)C(=O)c1cccc(-c2ccc([C@@H]3[C@H]4CN(C(=O)C5CCC5)CC(=O)N4[C@H]3CO)cc2)c1 | -5.1 | 5.1 | 2.2 | 6.7
CN1C(=O)c2cc(NC(=O)c3cccs3)ccc2OC[C@@H]2O[C@@H](CC(=O)NCCN3CCCCC3)CC[C@@H]21 | -1.8 | 3.7 | 13.1 | -1.8
O=C(Nc1ccccc1F)N1CC(=O)N2[C@H](CO)[C@@H](c3ccc(C#Cc4ccccc4)cc3)[C@H]2C1 | -9.3 | -7.7 | -42.6 | 22.5
O=C(Nc1cccc(Cl)c1)N1[C@@H]2CNC[C@H]1C2c1ccc(/C=C/c2ccccc2)cc1 (stereo partly specified) | 0.4&8.4 | -57.6&-51.6 | -77.7&-76.9 | -17.8&-14.5
O=C1CN(S(=O)(=O)Cc2ccccc2)C[C@@H]2[C@H](c3ccc(C#Cc4cccc(F)c4)cc3)[C@H](CO)N12 | -3.2 | 3.3 | 14.0 | -0.1
CCC(=O)Nc1ccc2c(c1)C(=O)N(C)C[C@@H](OC)[C@H](C)CN(C(=O)NC1CCCCC1)[C@H](C)CO2 | -3.1 | -3.0 | -3.3 | -0.3
N#C[C@@H]1[C@H](c2ccc(C#CC3CCCC3)cc2)[C@H](CO)N1C(=O)Cc1ccccn1 | 4.0 | -46.0 | -71.9 | -3.5
O=C(Cc1ccccc1)N1CC(=O)N2[C@H](CO)[C@H](c3ccc(-c4cccc(F)c4)cc3)[C@@H]2C1 | -3.2 | -17.3 | -57.4 | 12.3
O=C(C[C@@H]1CC[C@H]2[C@@H](COC[C@H](O)CN2C(=O)C2CC2)O1)NCc1ccncc1 | -3.4 | -1.0 | 9.9 | -0.7
Cc1ccc(-c2ccc([C@@H]3[C@@H](CO)N4C(=O)CN(C(=O)c5ccncc5)C[C@@H]34)cc2)cc1 | 2.5 | 0.3 | -10.9 | 2.3
COCC#Cc1ccc([C@@H]2[C@H](CO)N3C(=O)CN(C(=O)C4CCCC4)C[C@@H]23)cc1 | -0.8 | -0.1 | 3.8 | -0.2
COc1ccc(-c2ccc3c(c2)[C@@H]2[C@@H](CCN2C(=O)C2CCC2)[C@H](CO)N3C)cc1 | 33.0* | -25.1 | -56.4 | 24.5
COc1cccc(-c2ccc([C@H]3[C@@H](CO)N4C(=O)CN(C(=O)C5CCOCC5)C[C@H]34)cc2)c1 | 0.0 | 2.4 | 13.0 | -1.3
COc1ccc2c3c(n(C)c2c1)[C@H](CO)N(S(C)(=O)=O)CC31CCN(C(=O)Nc2cccc(F)c2)CC1 | 13.1 | -10.4 | -3.8 | 4.0
CN1c2ccc(Br)cc2[C@@H]2[C@@H](CCN2C(=O)C2CCCC2)[C@H]1CO | 7.3 | -37.0 | -68.3 | 0.7

A second format for some results above.
COCC#Cc1ccc([C@@H]2[C@H](CO)N3C(=O)CN(C(=O)C4CCCC4)C[C@@H]23)cc1
  AF4-AF9 inh: -0.8 | rRNA inh HTS: -0.1 | rRNA inh HTS OD600: 3.8 | rRNA inh HTS RFP: -0.2
COc1ccc(-c2ccc3c(c2)[C@@H]2[C@@H](CCN2C(=O)C2CCC2)[C@H](CO)N3C)cc1
  AF4-AF9 inh: 33.0* | rRNA inh HTS: -25.1 | rRNA inh HTS OD600: -56.4 | rRNA inh HTS RFP: 24.5

The list continues.
structure | AF4-AF9 inh | rRNA inh HTS | rRNA inh HTS OD600 | rRNA inh HTS RFP
NCC[C@@H]1CC[C@@H](NC(=O)C2CC2)[C@@H](CO)O1 | 0.4 | -0.3 | 2.8 | 0.9
COc1cccc(C(=O)Nc2ccc3c(c2)C(=O)N(C)[C@@H]2CC[C@@H](CC(=O)NCc4ccccc4F)O[C@H]2CO3)c1 | 0.0 | -5.9 | -17.5 | 5.5
COc1cccc(S(=O)(=O)N2CC3(CCN(C)CC3)c3c([nH]c4cc(OC)ccc34)[C@@H]2CO)c1 | 11.8 | -1.5 | 13.3 | -5.2
CO[C@@H]1CN(C)C(=O)c2ccc(NC(=O)c3ccc(F)cc3)cc2OC[C@@H](C)N(C)C[C@H]1C | 0.7 | 0.6 | 4.6 | -5.8
Cc1ccc(-c2ccc([C@H]3[C@H](CO)N4C(=O)CN(C(=O)c5cccnc5)C[C@@H]34)cc2)cc1 | -13.4 | -1.8 | -3.1 | -2.7
COc1cccc(NC(=O)N2CC3(C2)[C@@H](c2ccccc2)[C@@H](CO)N3C(=O)C2CC2)c1 | -1.2 | -0.3 | -10.8 | 7.8
COc1ccc(C#Cc2ccc([C@H]3[C@@H](CO)N4C(=O)CN(C(=O)Nc5ccccc5F)C[C@H]34)cc2)cc1 | -1.4 | 4.6 | -1.3 | 8.7
CCC(=O)N1[C@H](CO)[C@H](c2ccc(C3=CCCCC3)cc2)[C@@H]1CNC1CCCC1 | 5.5 | 3.0 | 2.5 | 3.4
O=C(NCC[C@@H]1CC[C@@H](NS(=O)(=O)c2ccc(F)cc2)[C@@H](CO)O1)c1ccccc1F | -1.2 | -1.3 | 0.1 | 1.5
CN1C(=O)c2cc(NC(=O)c3cccc(F)c3)ccc2OC[C@H]2O[C@@H](CC(=O)NCC3CC3)CC[C@@H]21 | -2.2 | 0.0 | 2.5 | -1.3
COc1cc(CN2CC3(CN(C(=O)CN4CCOCC4)C3)c3c(n(C)c4cc(OC)ccc34)[C@@H]2CO)cc(OC)c1 | -4.8 | 4.7 | 9.3 | -0.7
COCC#Cc1ccc([C@@H]2[C@H](CO)N3C(=O)CN(C(=O)C4CCOCC4)C[C@@H]23)cc1 | -1.1 | 3.9 | 4.9 | 1.0
CCCNC(=O)[C@@H]1[C@@H](CO)[C@@H]2Cn3c(ccc(-c4ccc(OC)cc4)c3=O)[C@H]1N2CC | -1.9 | -0.5 | -1.3 | -2.2
COc1ccc2c3c([nH]c2c1)[C@@H](CO)N(Cc1cc(F)ccc1F)CC31CCN(C(=O)CN(C)C)CC1 | 2.7 | 5.8 | 8.0 | 1.0
C[C@@H]1CN([C@@H](C)CO)C(=O)c2cc(NC(=O)Nc3ccc(C(F)(F)F)cc3)ccc2O[C@@H](C)CCCCO[C@@H]1CN(C)C(=O)Nc1ccccc1 | -5.4 | 1.2 | 19.0 | -1.4
O=C(Cc1ccccc1)N1CC(=O)N2[C@H](C1)[C@@H](c1ccc(C3=CCCC3)cc1)[C@@H]2CO | -3.0 | 3.4 | -5.0 | 2.1
COc1cccc(NC(=O)N2CC[C@@H]3[C@H]2c2cc(-c4cccc(OC)c4)ccc2N(C)[C@H]3CO)c1 | 13.6 | -4.2 | 3.8 | 1.7
CCCNC(=O)Nc1ccc2c(c1)C(=O)N(C)C[C@H](OC)[C@H](C)CN(CCC)[C@@H](C)CO2 | -2.3 | 1.3 | 7.7 | -2.3
COc1ccc2c3c([nH]c2c1)[C@@H](CO)N(C(=O)C1CCC1)CC31CN(C(=O)c2ccccn2)C1 | -1.4 | -6.2 | -6.0 | 3.4
Cc1noc(C)c1S(=O)(=O)N(C)C[C@H]1Oc2ccc(NS(=O)(=O)c3ccccc3)cc2C(=O)N([C@H](C)CO)C[C@H]1C | -0.2 | 2.6 | -1.3 | -1.0
C/C=C/c1ccc([C@@H]2[C@@H](CO)N3C(=O)CN(C(=O)c4cccc(F)c4)C[C@@H]23)cc1 | -3.2 | -1.7 | -6.0 | -2.8
CCCNC(=O)N1CC(=O)N2[C@H](CO)[C@H](c3ccc(C#Cc4ccc(F)cc4)cc3)[C@@H]2C1 | -3.1 | -3.2 | -47.9 | 18.9
CCCC#Cc1ccc([C@H]2[C@H]3CN(C(=O)Nc4ccccc4F)CC(=O)N3[C@H]2CO)cc1 | -1.1 | 1.2 | -23.9 | 0.0
CO[C@H]1CN(C)C(=O)c2cc(NS(=O)(=O)c3ccccc3)ccc2OC[C@@H](C)N(C)C[C@@H]1C | -0.7 | 2.0 | 0.3 | -1.9
O=C(c1cccc(F)c1)N1CC(=O)N2[C@H](CO)[C@H](c3ccc(C4=CCCC4)cc3)[C@@H]2C1 | -0.1 | 0.6 | -32.0 | 10.1
CN(C)CCCNC(=O)C[C@@H]1CC[C@@H]2[C@H](COC[C@@H](O)CN2CC2CCCCC2)O1 | -1.0 | 1.4 | 6.8 | 2.9
OC[C@H]1[C@@H](c2ccc(-c3ccccc3)cc2)[C@H]2CN(CCC(F)(F)F)CCCCN21 | 3.1 | -57.6 | -75.4 | -11.8
CN(C)C(=O)[C@@H]1[C@@H](CO)[C@@H]2Cn3c(ccc(C4=CCCC4)c3=O)[C@H]1N2CC1CC1 | -2.1 | 6.3 | 15.1 | -2.8
COc1cccc(C#Cc2ccc([C@H]3[C@H]4CN(C(=O)Cc5cccnc5)CC(=O)N4[C@H]3CO)cc2)c1 | 5.4 | -2.8 | -8.4 | 2.9
CCN1[C@H](C(=O)Nc2nccs2)[C@@H](CO)[C@@H]2Cn3c(ccc(/C=C/c4ccccc4)c3=O)[C@@H]21 | -23.3 | -0.1 | -5.8 | 3.7

Structures shown so far that contain a cyano group:
structure | AF4-AF9 inh | rRNA inh HTS | rRNA inh HTS OD600 | rRNA inh HTS RFP
CS(=O)(=O)N1[C@H](CO)[C@H](c2ccccc2-c2ccccc2F)[C@@H]1C#N | 0.6 | -0.4 | -22.3 | 1.9
N#C[C@@H]1[C@H](c2ccc(C#CC3CCCC3)cc2)[C@H](CO)N1C(=O)Cc1ccccn1 | 4.0 | -46.0 | -71.9 | -3.5

Following part
structure | AF4-AF9 inh | rRNA inh HTS | rRNA inh HTS OD600 | rRNA inh HTS RFP
C[C@H]1CN([C@@H](C)CO)C(=O)Cc2cc(NC(=O)C3CC3)ccc2O[C@H]1CN(C)Cc1ccc(C(F)(F)F)cc1 | -0.9 | -5.8 | -9.4 | 0.3
COCC(=O)N1CC2(CCN(Cc3cccnc3)CC2)c2c(n(C)c3cc(OC)ccc23)[C@H]1CO | -0.7 | 1.3 | 12.2 | -2.4
O=C(NC1CCCCC1)[C@@H]1[C@@H](CO)[C@@H]2Cn3c(cccc3=O)[C@H]1N2CC1CCCC1 | -2.8 | -2.4 | 6.1 | -2.5
O=C(c1cccc(F)c1)N1CC(=O)N2[C@H](CO)[C@H](c3ccc(-c4cccnc4)cc3)[C@@H]2C1 | -2.0 | 2.6 | 14.1 | -1.2
O=C(c1cccc(F)c1)N1CC2(C1)[C@@H](c1ccccc1)[C@@H](CO)N2C(=O)C1CCC1 | 0.8 | -2.6 | 1.9 | -0.8
CC(C)CC#Cc1ccc([C@H]2[C@@H](CO)N3C(=O)CN(C(=O)c4cnccn4)C[C@H]23)cc1 | -2.5 | 2.2 | 5.7 | -2.9
COc1ccc2c3c(n(C)c2c1)[C@@H](CO)N(C(=O)C1CCOCC1)CC31CN(Cc2cccc(F)c2)C1 | 13.2 | -2.8 | -9.9 | 8.4

Not all compounds are listed, so the mix of outcomes need not match the whole.
